MARV entry inh: Marburg virus entry inhibition. Marburg virus pseudotyped entry inhibition, cell reporter; control for the full effect not named in the record; about a third of the inactives were read at about 46 µM. Potency, µM (top dose mostly 37.8 µM), for inactives: at the top dose activity change, negative = inhibition, most hits filed as inhibitors. hit rate 1.8% among 300,000. AID 540276; active = well fitted inhibition curve with a large enough effect; inconclusive = small, poorly fitted or top-dose-only effect, or effect the other way; inactive = flat fitted curve, though single readings scatter; tested in HEK293 cells; about a fifth of its hits are not listed in these tables; note: % is set by controls: 0 for no effect and ±100 for the full control effect; luciferase read-out
Cruzain Triton: cruzain (T. cruzi) inhibition with detergent; P25779; purified cruzain, Z-FR-AMC fluorescence, 0.01% Triton; Potency, µM, inactives show max response, negative = inhibition, hits mostly inhibitors; hit rate 0.43% among 200,000; AID 1478; active = well fitted curve in the direction sought with a large enough effect; inconclusive = small, poorly fitted or top-dose-only effect, or another doubt; inactive = no such curve, though single readings can be large; an effect the other way counts as inactive or inconclusive;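 note: plate controls were neutral wells for no effect and buffer without enzyme for full effect; nearly all actives have a fitted effect of over 40% in size; top concentration of the series not given in the record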
Target sequence (P25779 123-467 limits assumed): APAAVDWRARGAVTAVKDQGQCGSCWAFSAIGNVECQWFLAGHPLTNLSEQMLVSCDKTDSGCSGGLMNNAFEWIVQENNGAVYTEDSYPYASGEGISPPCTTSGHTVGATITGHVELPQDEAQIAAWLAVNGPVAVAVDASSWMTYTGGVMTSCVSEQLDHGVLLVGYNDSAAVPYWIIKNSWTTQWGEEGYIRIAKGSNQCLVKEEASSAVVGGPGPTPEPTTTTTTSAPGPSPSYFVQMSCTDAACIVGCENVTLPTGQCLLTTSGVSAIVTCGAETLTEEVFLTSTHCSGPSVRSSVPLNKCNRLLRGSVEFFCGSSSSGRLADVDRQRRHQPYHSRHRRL
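Cysteine protease activity tested under reducing, mildly acidic conditions (100 mM sodium acetate pH 5.5, 5 mM DTT) plus 0.01% Triton X-100. Cruzain 1.5 nM; substrate Z-FR-AMC 2 uM; 15 min compound preincubation at room temperature.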
LASV entry inh: inhibitors of Lassa virus binding or cell entry; Lassa virus pseudotype entry inhibition, cell reporter; control for the full effect not named in the record; Potency, µM (highest dose often 37.9 µM), for the others: at the highest dose activity change, negative = inhibition, actives largely listed as inhibitors; hit rate 1.2% among 300,000; AID 540256; active means well fitted inhibition curve with a large enough effect; inconclusive means small, poorly fitted or top-dose-only effect, or effect the other way; inactive means flat fitted curve, though single readings scatter; tested in HEK293 cells; note: % is set by controls: 0 for no effect and ±100 for the full control effect; nearly all actives have a fitted effect of over 50% in size; luciferase read-out
Cruzain inh noDet: blocks cruzain activity in detergent-free assay. P25779. purified cruzain, Z-FR-AMC fluorescence, no detergent. Potency, µM, for the others: max response, negative = inhibition, usual class: inhibitors. hit rate 2.3% among 200,000. AID 1476; active = well fitted curve in the direction sought with a large enough effect; inconclusive = small, poorly fitted or top-dose-only effect, or another doubt; inactive = no such curve, though single readings can be large; an effect the other way counts as inactive or inconclusive;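 note: plate controls were enzyme without inhibitor for no effect and buffer without enzyme for full effect; nearly all actives have a fitted effect of over 40% in size; top concentration of the series not given in the record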
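Purified cruzain at 1.5 nM, pre-incubated 15 min with compound at room temperature in 100 mM sodium acetate pH 5.5, 5 mM DTT, 0.00005% Triton X-100. Reaction started with 2 uM Z-FR-AMC; AMC fluorescence increase over 60 s gives rate.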
2A StopGo: FMDV 2A StopGo reporter, luciferase signal | Potency, µM (highest dose often 57.9 µM), for inactives: at the highest dose signal change, negative = less light | hit rate 1.2% among 410,000 | human cells with a luciferase reporter of 2A StopGo recoding; control for the full effect not named in the record; active = well fitted falling curve with a large enough effect; inconclusive = small, poorly fitted or top-dose-only effect; inactive = no such curve, though single readings can be large or run the other way; tested in HEK293T cells; note: % is set by controls: 0 for no effect and ±100 for the full control effect; nearly all actives have a fitted effect of over 45% in size; luciferase light after 4 h
RE007 growth inh: less growth of the S. pombe RE007 Vpr strain. S. pombe RE007 Vpr strain, BacTiter-Glo ATP luminescence, 24 h; control for the full effect not named in the record. Potency, µM (highest dose often 92.2 µM), for inactives: at the top dose activity change, negative = less growth. hit rate 0.21% among 360,000. AID 651644; active = well fitted falling curve with a large enough effect; inconclusive = small, poorly fitted or top-dose-only effect; inactive = no such curve, though single readings can be large or run the other way;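 note: % is set by controls: 0 for no effect and ±100 for the full control effect; nearly all actives have a fitted effect of over 50% in size; the assay follows cell death caused by Vpr and the record does not say whether a fall means rescue or toxicity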
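Fission yeast RE007 carrying one integrated HIV-1 vpr copy, seeded at OD 0.01 in PMG+AL medium with 23 nL pinned compound. Grown 24 h at 30 degrees; viability read by BacTiter-Glo luminescence after 5 min.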
NS1 function inh: blocks influenza NS1 protein function; AID 2326; Potency, µM (top dose mostly 46.1 µM), without a hit: at the top dose activity, positive = more growth; S. cerevisiae slowed by influenza A NS1, growth recovery by OD600; hit rate 0.4% among 270,000; note: actives are rising curves; nearly all actives have a fitted effect of over 50% in size
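Compounds were scored for reversing the slow growth caused by influenza A NS1 in S. cerevisiae, measured by optical density at 600 nm. Assay medium contained 2% galactose at pH 6.0; NS1-free yeast of the same strain were the positive control.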
SARS PLpro yeast: blocks SARS-CoV papain-like protease in a yeast assay | S. cerevisiae expressing SARS-CoV PLpro, growth rescue; control for the full effect not named in the record | Potency, µM (series often up to 32.9 µM), for the others: top-dose activity, positive = growth rescue | hit rate 0.19% among 330,000 | AID 485353; note: 0% is about no effect; nearly all actives have a fitted effect of over 55% in size; growth read by luminescence after 48 h
* marks the source's active call; other numbers are inactive results; ? = inconclusive; . = no result given; & = joins results of further samples; [ ] = remark or other dose. Unless noted, calls come from the whole dose curve; as a rule, active means well fitted rising curve with a large enough effect; inconclusive means small, poorly fitted or top-dose-only effect; inactive means no such curve, though single readings can be large or run the other way. Potency is the fitted concentration of half-maximal effect.

| Molecule | MARV entry inh | 2A StopGo | RE007 growth inh | NS1 function inh | LASV entry inh | SARS PLpro yeast | Cruzain Triton | Cruzain inh noDet |
| --- | --- | --- | --- | --- | --- | --- | --- | --- |
| c1cncc(C(c2nnnn2C2CCCCC2)N2CCCCC2)c1 (stereo not given) | -9%[46.1 µM] | 25% | -13% | -1% | 0%[46.1 µM] | 0% | . | . |
| O=C(CN(C(=O)c1csnn1)c1ccccc1C(F)(F)F)NC1CCCCC1 | -2%[46.1 µM] | -7% | 10% | -8% | 14% | 0% | . | . |
| COc1ccccc1CNC(=O)c1oc2ccc(S(=O)(=O)N3CCCCC3)cc2c1C | . | -23% | . | . | ? | . | 0.5% | ? |
| COc1ccc(CNC(=O)CCCCCNc2nc(=S)[nH]c3ccccc23)cc1 | -23%[46.1 µM] | -14% | -4% | 22% | . | -1% | . | . |
| COc1ccc2c(c1)C(=O)[C@@H](O)[C@H](c1ccc(OC)c(Br)c1)O2 | 5% | 21% | -9% | 12% | ? | -10% | 0.3%&-2.1% | -5%&-3% |
| Cc1c(C)n2c(SCC(=O)N3CCC(C)CC3)nnc2[nH]c1=O | 7%[46.1 µM] | -9% | 34% | . | 6% | 0% | . | . |
| CCN(CC)S(=O)(=O)c1ccc(/C=C/C(=O)Nc2c(C)n(C)n(-c3ccccc3)c2=O)cc1 | -13%[46.1 µM] | -16% | -4% | -1% | 6% | 1% | . | . |
| c1ccn2cc(CSC3=NCCS3)nc2c1 | ? | 30% | ? | 8% | ? | 15% | -3.7% | 8% |
| CCOC(=O)c1cnn(-c2cc(C)c3ccccc3n2)c1N | 4% | 23% | 19% | -1% | 6% | -5% | -3.6% | 2% |
| O=S(=O)(c1ccc(F)cc1)N1CCN(c2nc(-c3cccnc3)nc3ccccc23)CC1 | ? | ? | -13% | . | ? | -4% | . | . |
| CCC(=O)N1CCc2cc(S(=O)(=O)CCC(=O)Nc3cccc(F)c3)ccc21 | -2% | -17% | -9% | -7% | 12% | 4% | -1.2% | 10% |
| COC(=O)CCS(=O)(=O)c1nc(-c2ccccc2)cc(C(F)(F)F)n1 | ? | 16µM* | -18% | -228% | 23µM* | -31% | -5.9% | 14% |
| Cc1sc2ncnc(NCC3CCCO3)c2c1C (stereo not given) | -30% | 28µM* | -17% | -16% | -20% | 0% | 2.8% | -7% |
| CC12CC(c3ccccc3O1)N(C(=O)c1ccco1)C(=O)N2c1ccccc1 (stereo not given) | -7% | 0% | -5% | -11% | 5% | 0% | -6.1% | 0% |
| NC(=O)C1(N2CCCCC2)CCN(C(=S)NC2CCCC2)CC1 | 9%[46.1 µM] | 16% | -15% | . | 8%[46.1 µM] | 0% | . | . |
| CCOC(=O)CSc1nnc(-c2cccnc2)n1Cc1ccccc1 | -7% | -3% | -2% | -7% | 12% | 0% | 3.4% | 1% |
| CC(=O)N1CN2CN(C(C)=O)CC(C(=O)c3ccc(Br)cc3)(C2)C1 | -4% | -27% | 12% | 2% | 2% | 3% | 1.0% | 0% |
| O=C(c1ccc(-c2ccc(Cl)cc2Cl)o1)N1CCOCC1 | . | 41%[activator] | 0% | -5% | . | -2% | . | . |
| CCOC(=O)N1CCC(NC(=O)c2cccc3c2C(=O)N(c2ccc(OC)cc2)C3)CC1 | 0% | -26% | -3% | -25% | . | 5% | -7.6% | ? |
| COc1cccc(CNc2nc(C(F)(F)F)nc3ccccc23)c1 | ? | ? | 2% | -105% | ? | -8% | . | . |
| COC(=O)Cn1c(=O)c2c(nc(Br)n2CC(=O)OC)n(C)c1=O | -16% | 8% | -2% | 4% | -5% | 5% | 0.8% | -11% |
| CCCN1CNC(=S)N(c2cccc(C)c2)C1 | 8%[46.1 µM] | 11% | -8% | 0% | 1%[46.1 µM] | 0% | . | . |
| Cc1cc(C)c(S(=O)(=O)N(C)CC(=O)NCC2CCCO2)c(C)c1 (stereo not given) | -9%[46.1 µM] | -14% | 15% | 6% | . | 4% | . | . |
| CC1CCCC(NC(=O)COC(=O)c2ccc([N+](=O)[O-])o2)C1C (stereo not given) | -1%[46.1 µM] | -14% | -2% | . | -16%[46.1 µM] | 0% | . | . |
| COc1ccc(C2=NN(C(=O)CCC(=O)O)C(c3ccc(Br)cc3)C2)cc1 (stereo not given) | -24%[46.1 µM] | -17% | 5% | 4% | 11%[46.1 µM] | 2% | . | . |
| CNC(=S)N1N=C(c2ccc(C)cc2)CC1c1ccc(Cl)cc1 (stereo not given) | ? | -22% | 22% | 1% | 9.2µM* | 17% | -7.7% | -30% |
| Cc1ccc(C(=O)NNC(=O)CSc2nnc(C(C)C)n2C)cc1 | 6%[46.1 µM] | 14% | 3% | -5% | 8%[46.1 µM] | 5% | . | . |
| N#C/C(=C\c1ccc(N2CCCCC2)o1)C(=O)Nc1cccc(Br)c1 | ? | 6% | -5% | 29% | ? | -16% | -3.4% | ? |
| O=C(/C=C/c1ccc2c(c1)OCO2)NCCSCc1cccc(Cl)c1 | ? | -10% | 0% | -103% | ? | -21% | -7.0% | -4% |
| COC(=O)c1ccc(Cl)c(NC(=O)CN2CCC(C)CC2)c1 | 1% | -6% | 19% | ? | -26%[14.3 µM] | ? | 3.0% | 5% |
| COc1ccc(/C=N/NC(=O)CNC(=O)c2ccc(S(=O)(=O)N3CCOCC3)cc2)c(OC)c1 | 8% | -3% | 3% | -27% | ? | -11% | -6.7% | 26% |
| Cc1ccc(Oc2ccc(N)cc2)cc1 | 28% | 28% | 16% | -8% | 22% | 3% | 1.3% | -2% |
| COc1ccc(NC(=O)CN(C)C(=O)CNC(=O)c2ccc3c(c2)OCO3)cc1 | 3%[46.1 µM] | 4% | 1% | . | 18% | 0% | . | . |
| O=C(NN1CC(=O)N(c2cc(Cl)cc(Cl)c2)CC1=O)c1sccc1Cl | . | -11% | 8% | -4% | . | 1% | . | . |
| O=C(CS(=O)CC(=O)Nc1cnc2ccccc2c1)Nc1ccc(Cl)cc1 (stereo not given) | -1%[46.1 µM] | 2% | -6% | 0% | -6% | 1% | . | . |
| COc1ccc(NC(=O)c2ccccn2)cc1S(=O)(=O)N1CCOCC1 | -7% | -11% | 15% | . | 17% | -3% | . | . |

Some entries already given with just Cruzain Triton.
structure,Cruzain Triton
COC(=O)c1ccc(Cl)c(NC(=O)CN2CCC(C)CC2)c1,3.0%
COc1ccc(/C=N/NC(=O)CNC(=O)c2ccc(S(=O)(=O)N3CCOCC3)cc2)c(OC)c1,-6.7%
Cc1ccc(Oc2ccc(N)cc2)cc1,1.3%

Further structures:
| Molecule | MARV entry inh | 2A StopGo | RE007 growth inh | NS1 function inh | LASV entry inh | SARS PLpro yeast | Cruzain Triton | Cruzain inh noDet |
| --- | --- | --- | --- | --- | --- | --- | --- | --- |
| O=C1C2C3C=CC(C3)C2C(=O)N1Nc1ccccc1 (stereo not given) | ? | 0% | 28% | 2% | ? | 0% | . | . |
| O=C(N/C(=C/c1ccc(Br)cc1)C(=O)N1CCOCC1)c1ccco1 | -15% | -14% | -15% | -9% | 3% | 2% | . | . |
| Cc1ccc(CNC(=O)CCS(=O)(=O)c2ccc3nc(C)sc3c2)cc1 | . | 0% | -7% | 0% | . | ? | . | . |
| CCc1[nH]nc2c1C(c1ccncc1)C(C#N)=C(N)O2 (stereo not given) | -11% | . | -4% | -2% | 12% | 4% | 2.9% | -4% |
| CCCCNC(=O)Oc1ccc(C(=O)N2c3ccccc3NC(=O)C2C)cc1 (stereo not given) | . | -26% | -1% | 6% | . | 1% | . | . |
| Cc1cccc(NC(=S)N/N=C/c2ccc3c(c2)OCO3)c1 | ? | 30% | -19% | ? | ? | ? | -23% | -7% |
| Cc1cc(NC(=O)CSc2nnc(Cc3cccn3C)n2CCc2ccccc2)no1 | -26% | -4% | -4% | 4% | -2% | 5% | -1.0% | 1% |
| COc1cc(OC)c(OC)cc1CNCc1ccc2c(c1)OCO2 | . | 3% | -18% | 1% | . | -1% | . | . |
| COC(=O)c1cc(NC(=O)c2c(C)noc2C)ccc1N1CCOCC1 | ? | 11% | 4% | 0% | 6%[46.1 µM] | -5% | . | . |
| CCOC(=O)C1(CCCc2ccccc2)CCN(Cc2cn(CC)nc2C)CC1 | 8.9µM* | ? | -13% | -2% | ? | 0% | . | . |
| O=C(/C=C/c1ccccc1)Nn1c(-c2cccs2)nc2ccccc2c1=O | -3% | -9% | -16% | 15% | -2% | -12% | -8.0% | ? |
| Cn1c(SCC(=O)NCCc2ccccc2)nnc1-c1ccncc1 | -1% | -3% | -1% | -3% | -3% | 2% | 3.1% | -4% |
| CCn1c(N2CCN(C(=S)NCCc3ccccc3)CC2)nc2ccccc21 | ? | ? | 15% | -40% | -12% | -14% | -1.0% | 7% |
| O=C(c1ccccc1)c1ccc(OCCn2cnc3ccccc3c2=O)cc1 | -14% | ? | 2% | 18% | 25µM* | 1% | -0.5% | 1% |
| O=C(CCN1CCN(c2ccccc2)CC1)c1ccc(Br)cc1 | . | -3% | ? | -43% | . | -11% | . | . |

Pulled by structure from the entries so far, 4 records:
| Molecule | MARV entry inh | 2A StopGo | RE007 growth inh | NS1 function inh | LASV entry inh | SARS PLpro yeast | Cruzain Triton | Cruzain inh noDet |
| --- | --- | --- | --- | --- | --- | --- | --- | --- |
| CCC(=O)N1CCc2cc(S(=O)(=O)CCC(=O)Nc3cccc(F)c3)ccc21 | -2% | -17% | -9% | -7% | 12% | 4% | -1.2% | 10% |
| Cc1ccc(CNC(=O)CCS(=O)(=O)c2ccc3nc(C)sc3c2)cc1 | . | 0% | -7% | 0% | . | ? | . | . |
| O=C(c1ccccc1)c1ccc(OCCn2cnc3ccccc3c2=O)cc1 | -14% | ? | 2% | 18% | 25µM* | 1% | -0.5% | 1% |
| COc1cccc(CNc2nc(C(F)(F)F)nc3ccccc23)c1 | ? | ? | 2% | -105% | ? | -8% | . | . |

Source: PubChem (National Center for Advancing Translational Sciences (NCATS))
